Screens (PubChem)
Rango release inh: qHTS Assay for Inhibitors of RanGTP induced Rango (Ran-regulated importin-beta cargo) - Importin beta complex dissociation; AID 540253, 2011; hit rate 0.071% among 340,000; Snurportin-1 (Homo sapiens) + GTP-binding nuclear protein Ran (Homo sapiens) + Importin …; Potency, µM (top dose mostly 46.1 µM), for the others: at the top dose activity change, negative = inhibition; Biochemical FRET Rango-importin beta, RanGTP-induced dissociation; active means falling FRET ratio curve, often poorly fitted, with flat reads before Ran was added; inconclusive means other falling curves, or compound fluorescence or quenching; inactive means flat or rising ratio curve;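 also: potency is read from the fitted curve at half-maximal effect; % of control where 0% means no effect; nearly all actives have a fitted effect of over 45% in size; -100% = wells without RanGTP and RCC1; the record marks most hits as doubtful in a second field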
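Two FRET readings bracket the reaction: one 5 min after compound meets Rango–importin beta, another 45 min after RanGTP-RCC1 (0.6 uM Ran, 0.2 uM RCC1, 2 mM GTP) is added. Only the second defines inhibition.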
miR-21 reporter: qHTS Assay for Modulators of miRNAs and/orActivators of miR-21 | HeLa miR-21 FLuc reporter, luciferase, 48 h | Potency, µM (doses to about 38.3 µM), for inactives: at the highest dose reporter change, positive = more light | 340,000 tested, under 10 active; active = well fitted rising curve with a large enough effect; inconclusive = small, poorly fitted or top-dose-only effect; inactive = no such curve, though single readings can be large or run the other way;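 also: % of control where 0% means no effect; miR-21 action dims this reporter so a rising signal means less miR-21 action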
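HeLa cells stably expressing CMV-driven firefly luciferase with a downstream miR-21 binding sequence, endogenously expressing miR-21, were treated with titrations (up to about 40uM final) for 48 hours at 37 degree Celsius. Luciferase luminescence was read after lysis.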
Rango complex inh: qHTS Assay for Inhibitors of Rango (Ran-regulated importin-beta cargo) - Importin beta complex formation | Potency, µM (titrated, usually from 92.2 µM), for the others: top-dose inhibition of complex formation | AID 540263, 2011 | hit rate 0.031% among 340,000 | Rango CFP/YFP FRET sensor + importin beta, 45 min; active = rising FRET ratio curve, often small or poorly fitted; inconclusive = mostly compound fluorescence or quenching in the first reads; inactive = flat curves in all reads;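 also: potency is read from the fitted curve at half-maximal effect; 0% = DMSO wells and 100% = buffer wells lacking importin beta; nearly all actives have a fitted effect of over 15% in size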
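FRET biosensor (snurportin 1 IBB flanked by EYFP and cerulean), 50 nM, with compound 5 min, then 0.125 microM importin beta in PBS, 1 mM DTT, 0.02% Tween-20, 0.1% BSA. CFP/YFP ratio read after 45 min at room temperature; pre-read flags interference.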
GLA inh pH 4.5: qHTS Assay for Inhibitors of Human alpha-Galactosidase at pH 4.5. AID 1467, 2008. purified enzyme, 4-MU-alpha-Gal fluorescence, pH 4.5. 230,000 tested, under 10 active. activity change, negative = inhibition, % at 105 µM; inconclusive = small, poorly fitted or top-dose-only inhibition, or a rising curve; inactive = flat fitted curve, though single readings scatter; no compound was filed as active;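 also: 0% = full activity with enzyme and -100% = basal without enzyme; dose as in the result columns while the protocol names 77 µM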
Target sequence (P06280 whole entry, looked up): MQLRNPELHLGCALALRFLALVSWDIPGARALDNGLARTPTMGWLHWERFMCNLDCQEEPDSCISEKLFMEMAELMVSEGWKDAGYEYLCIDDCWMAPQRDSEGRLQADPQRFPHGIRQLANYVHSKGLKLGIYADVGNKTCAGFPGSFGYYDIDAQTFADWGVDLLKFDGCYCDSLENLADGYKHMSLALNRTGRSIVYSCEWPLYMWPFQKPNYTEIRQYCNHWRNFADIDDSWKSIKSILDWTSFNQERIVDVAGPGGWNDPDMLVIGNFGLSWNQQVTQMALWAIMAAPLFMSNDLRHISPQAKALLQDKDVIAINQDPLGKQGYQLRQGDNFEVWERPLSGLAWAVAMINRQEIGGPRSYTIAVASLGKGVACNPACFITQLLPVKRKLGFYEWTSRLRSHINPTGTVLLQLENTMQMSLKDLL
The depositor's hits bear a star; ? = inconclusive; . = no result given; [ ] = another dose, or the depositor's remark. A portion of the library; count on the stated rates, not on these rows.

SMILES	Rango release inh	miR-21 reporter	Rango complex inh	GLA inh pH 4.5
Cc1ccc(S(=O)(=O)N2[C@@H](c3ccc(C(C)(C)C)cc3)C(C(=O)O)=CC[C@H]2c2ccc(Cl)c(Cl)c2)cc1	6%	.	0.4%	.
CC(CC(=O)NCc1ccc(F)cc1)c1ccccc1 (stereo not given)	-7%	-7%	-0.1%	.
Cc1cc(C(=O)COc2ccccc2[N+](=O)[O-])c(C)n1-c1cccc(S(=O)(=O)N2CCOCC2)c1	-1%	-6%	0.2%	0
CCCCNc1c(N2CCN(C(=O)OCC)CC2)c(=O)c1=O	0%	1%	-2.2%	11
Nc1nnc(Cc2ccccc2)s1	0%	0%	-0.1%	6
O=C(CCCOc1ccc(Br)cc1)NNC(=O)c1ccncc1	2%	.	1.3%	.
C(=N\Nc1nc2ccccc2[nH]1)/c1ccncc1	?	-53%	-4.1%	-8
Cc1ccccc1NCC(=O)N/N=C/c1c[nH]c2ccccc12	2%	19%	5.3%	-17[21.1 µM]
COc1ccc(C(=O)N[C@H](C(=O)NCc2ccc(C)cc2)C(C)C)cc1	15%	-4%	0.0%	.
NC(=O)CN1CCN(S(=O)(=O)c2ccc(Cl)cc2)CC1	-19%	0%	2.2%	-2
CCN1C(=O)/C(=C2\SC(=S)N(NC(=O)c3cccnc3)C2=O)c2ccccc21	-4%	-2%	1.4%	.
CCOC(=O)c1c(C)n(C)c2cc(Br)c(OC)cc12	-7%	-9%	2.5%	-1
O=C(NC1CCN(S(=O)(=O)c2ccc(F)cc2)CC1)C1CCCCC1	2%	-3%	-2.7%	.
O=C(Nc1ccccc1)c1ccc(S(=O)(=O)N(CCO)CCO)cc1	-16%	-14%	-0.3%	-2
CCOC(=O)C1=C(C)C(c2ccccc2OC)NC(=S)N1 (stereo not given)	-8%	-6%	-0.9%	-4
Cc1ccc(NC(=O)CN2C(=O)N/C(=C/c3ccc4c(c3)OCCO4)C2=O)cc1	-22%	-8%	4.5%	.
O=C1CN(C(=S)Nc2ccc(OC(F)F)cc2)CCN1	-17%	2%	2.6%	0
COc1cccc(NC(=O)CN(C)C(=O)c2cc(-c3ccco3)nc3ccccc23)c1	10%	.	0.4%	.
CCOc1cc(/C=C(/C#N)C(=O)Nc2ccc(O)cc2)cc(Br)c1O	?	19%	?	-6
CC(=O)N[C@@H](Cc1c[nH]c2ccccc12)C(=O)NCCc1ccc(S(N)(=O)=O)cc1	14%	-3%	0.0%	.
COCCn1c(Sc2nc(C)cs2)nc2c1c(=O)[nH]c(=O)n2C	5%	-4%	-2.3%	-6
Cc1cc(C(=O)COC(=O)c2ccc(O)cc2)c(C)n1CC(F)(F)F	0%	.	2.0%	.
COc1cc(NC(=O)C2CCN(S(=O)(=O)c3cccc4nonc34)CC2)cc(OC)c1	0%	0%	0.0%	-5
CC(C)CCNC(=O)C1CCC(=O)N1C(C)C (stereo not given)	2%	2%	-3.2%	-3
O=Cc1cn(CC(O)Cn2cc(C=O)c3ccccc32)c2ccccc12	3%	5%	-1.0%	.
Cc1cccc(C)c1NC(=O)CCCSc1nnnn1C	-13%	-5%	4.4%	1
Cc1cc(C)n2c(SCC(=O)NC3CCCCC3C)nnc2n1 (stereo not given)	-6%	-1%	5.1%	-4
Cc1nnc(SCC(=O)Nc2sccc2C(N)=O)n1Cc1ccccc1	11%	-5%	-0.6%	-8
O=c1c2c([N+](=O)[O-])cc([N+](=O)[O-])cc2sn1Cc1ccccc1	3%	?	-2.3%	.
NS(=O)(=O)c1ccc(CNC(=O)c2ccc(Cl)c(S(=O)(=O)NCc3ccccc3)c2)cc1	-1%	.	-0.2%	.
CC(=O)Nc1ccc(S(=O)(=O)Nc2cc(C)c(-n3nc4ccccc4n3)cc2O)cc1	-7%	-3%	0.3%	1
COc1ccccc1NC(=O)C(CC(C)C)NC(=O)C1CCCCC1 (stereo not given)	-2%	6%	-0.4%	1
CCNC(=S)Nc1scc(-c2ccccc2)c1C(=O)OCC	?	-9%	-1.1%	-25
Cc1ccc(NC(=O)CC(=O)Nc2ccc(C)cc2C)c(C)c1	-16%	-1%	-1.6%	.
COc1ccc(C2(C)NC(=O)N(CC(=O)c3ccc4c(c3)OCO4)C2=O)cc1 (stereo not given)	11%	-1%	0.5%	.
CCOc1ccc(N(CC(=O)Nc2ccc(C)c(C)c2)S(=O)(=O)c2c(C)noc2C)cc1	29%	28%	-5.6%	-16
Cc1occc1C(=O)N=Nc1c(O)[nH]c2ccc(Br)cc12	.	-52%	.	-5
CCCCCc1nnc(NC(=O)OCCC)s1	-7%	-14%	4.3%	0
O=C(NCc1ccccc1Cl)c1ccc(-c2ccccc2)cc1	11%	-40%	-3.8%	7
COc1cc(OC)cc(C(=O)N2CCC(n3c(C)nc4cc(F)ccc43)CC2)c1	13%	-10%	3.5%	-3
O=[N+]([O-])c1cccc(/C=N/N=C\c2ccccc2)c1	24%	-9%	-4.2%	.
CN(Cc1cccs1)C(=O)CN1CCN(S(=O)(=O)c2ccc3c(c2)OCCCO3)CC1	0%	.	4.4%	.
O=C(CSc1nnnn1C1CCCC1)Nc1cccc(NC(=O)c2ccco2)c1	-3%	-18%	-2.3%	-4
COc1ccc(CC(=O)Nc2ccc(S(=O)(=O)N3CCC(C)CC3)cc2)c(OC)c1	0%	.	2.7%	.
CCCCCN1CSC(=S)N(Cc2ccccc2)C1	13%	0%	0.2%	-8
CCC(=NCc1ccco1)c1c(C(F)(F)F)[nH]n(-c2nc3ccccc3s2)c1=O	-11%	-28%	4.0%	5
Cc1[nH]c2ccccc2c1Cc1n[nH]c(=S)n1C	7%	-3%	-1.9%	2
CCOC(=O)CSc1nc(C(C)C)nc2ccccc12	2%	-7%	4.5%	-2
CCOc1ccccc1NC(=O)c1cc(-c2ccccn2)nc2ccccc12	-17%	.	-2.4%	.
COC(=O)c1ccc(COc2ccc(C(C)(C)C)cc2)o1	-17%	-61%	4.5%	.
Cc1ccc2[nH]c3c(c2c1)CCCC3C(N)=O (stereo not given)	22%	-5%	5.3%	5
CCC(CC)COC(=O)C1=C(C)NC(=O)NC1c1ccc2c(c1)OCO2 (stereo not given)	-2%	12%	3.9%	.
COC(=O)C1CCN(Cc2cn(-c3ccccc3)nc2-c2ccc3c(c2)OCO3)CC1	-10%	-8%	-2.8%	-11
COc1ccccc1Nc1ncnc2nc[nH]c12	1%	-1%	0.8%	-14
COCCCN1C(=O)C(=O)/C(=C(/O)c2ccc(OCC(C)C)cc2C)C1c1cccnc1 (stereo not given)	2%	-7%	-0.8%	-1
CC(C)(C)C1(O)CC(C(F)(F)F)=NN1C(=O)Cc1ccc([N+](=O)[O-])cc1 (stereo not given)	1%	1%	2.2%	3
Cc1onc(-c2ccccc2)c1C(=O)NCC1CCCO1 (stereo not given)	0%	-5%	-2.3%	-7
CCCCN1C(=O)c2ccc(C(=O)OCC(=O)N3CCN(c4ccccc4)CC3)cc2C1=O	6%	.	3.8%	.
COc1ccc(-c2noc(CCC(=O)NCCCN3CCC(C)CC3)n2)cc1	5%	-2%	-0.6%	4
O=C(CSc1nnc(-c2cccc(F)c2)o1)N1CCCC1	0%	-41%	2.4%	.

Exported with bars between the fields: part of the list above.
smiles | Rango release inh | miR-21 reporter | Rango complex inh | GLA inh pH 4.5
CCOC(=O)C1=C(C)C(c2ccccc2OC)NC(=S)N1 (stereo not given) | -8% | -6% | -0.9% | -4
CC(C)(C)C1(O)CC(C(F)(F)F)=NN1C(=O)Cc1ccc([N+](=O)[O-])cc1 (stereo not given) | 1% | 1% | 2.2% | 3

Continued.
SMILES	Rango release inh	miR-21 reporter	Rango complex inh	GLA inh pH 4.5
Cc1ccc(NC(=O)CN(C)C(=O)CSc2nnc(N)s2)cc1	-15%	.	-0.6%	.
CCCCC(=O)Nc1cccc(NC(=O)c2cccnc2Cl)c1	15%	-1%	-0.7%	-1
Cc1ccccc1OCCC(=O)Nc1ccc(F)c(Cl)c1	-17%	-11%	2.6%	-14
O=S(=O)(Nc1nccs1)c1ccc2c(c1)OCCO2	-1%	-5%	-0.8%	5
CCn1c(O)c(N=NC(=O)Cc2csc(N3CCOCC3)n2)c2ccccc21	10%	-1%	4.4%	2
CN(CC(=O)Nc1ccc(F)c(Cl)c1)S(=O)(=O)c1cccc2nsnc12	6%	1%	0.9%	-12
Cc1c(C(=O)O)[nH]c2c1C(=O)CC(c1ccc(Cl)cc1)C2 (stereo not given)	-9%	-1%	-0.3%	6
CC(C)CNC(=O)c1cccc(NC(=O)CCc2ccccc2)c1	5%	-1%	1.4%	16
CCc1ccccc1N=Cc1c(C)c(C#N)c2[nH]c3ccccc3n2c1=O	-16%	.	?	.
COc1ccc(-c2nnn(CCc3nn[nH]n3)n2)cc1	0%	.	0.9%	.
CC1CCC(N2CCN(S(C)(=O)=O)CC2)CC1 (stereo not given)	-18%	-1%	2.8%	4
CCN(Cc1ccccc1)S(=O)(=O)c1ccc(C(=O)N(CCCN(C)C)c2nc3cc4c(cc3s2)OCO4)cc1	11%	0%	-0.1%	.
Cc1coc2cc3oc(=O)cc(C)c3cc12	2%	-11%	0.0%	-1
CCOC(=O)c1c(C)[nH]c(C)c1C(=O)COC(=O)c1ccc(OC)cc1	-16%	2%	-2.3%	-7
CCCN(CCC)CCSc1nc(O)c(C(C)C)c(=O)[nH]1	8%	3%	2.0%	2
CCOC(=O)c1cnc(SCC(=O)N2CCc3ccccc32)nc1N	0%	1%	-4.0%	0
CCOc1ccc(-c2n[nH]c(=S)c3ccccc23)cc1	-8%	0%	0.4%	.
CCOc1ccc(NC(=O)COC(=O)c2c(OC)cccc2OC)cc1	1%	1%	3.6%	-8
Cc1cccc(N(CC(N)=O)C2SC(=O)NC2=O)c1 (stereo not given)	8%	-4%	?	5
CCOc1c(C)cc(S(=O)(=O)NCc2cccnc2)c(C)c1C	20%	5%	2.1%	.

The last three compounds of the part before open the next one.
SMILES	Rango release inh	miR-21 reporter	Rango complex inh	GLA inh pH 4.5
CCOc1ccc(NC(=O)COC(=O)c2c(OC)cccc2OC)cc1	1%	1%	3.6%	-8
Cc1cccc(N(CC(N)=O)C2SC(=O)NC2=O)c1 (stereo not given)	8%	-4%	?	5
CCOc1c(C)cc(S(=O)(=O)NCc2cccnc2)c(C)c1C	20%	5%	2.1%	.
Cc1ccc(-n2nc3cc(C)c(N)cc3n2)cc1	18µM*	-3%	?	8
CCOc1cc(NC(=O)c2ccco2)c(OCC)cc1NC(=O)CCc1ccc(OC)cc1	.	0%	.	0
CC(=O)Nc1ccc(NC(=O)CS(=O)(=O)Cc2ccccc2)cc1	-1%	-4%	-0.2%	.
CC(=O)N1CC[n+]2c(-c3ccc(Cl)cc3Cl)csc21	-10%	3%	?	-5
O=c1[nH]cc(N2CCCCCC2)c(=O)[nH]1	-6%	1%	-1.2%	6
O=C(CN1CCCC1)NCC(=O)Nc1ccc(F)cc1	-23%	3%	-0.6%	-3
O=C(CN1CCN(C(=O)c2ccco2)CC1)Nc1ccc2c(c1)OCO2	5%	.	6.1%	.
Cc1cc(SCc2ccc(Cl)cc2Cl)nc(=O)[nH]1	-17%	23%	?	.
O=C(CNC(=O)c1ccc2ccccc2c1)NC1CCCCC1	0%	.	1.0%	.
FC(F)(F)c1ccccc1CNCc1ccncc1	1%	5%	0.4%	.
CCO[C@H]1OC(C(=O)N2CCOCC2)=C[C@@H](C2CC2)[C@@H]1CCCO	15%	3%	-0.3%	6
Cc1cc(S(=O)(=O)N2CCOCC2)ccc1OCC(=O)Nc1ccccc1F	-6%	1%	-0.1%	.
CCCCc1nc2cc(C(=O)N3CCN(c4nc(C)cnc4C)CC3)ccc2o1	-3%	-13%	-2.6%	.
N#Cc1cc2c(=O)n3ccccc3nc2n(CCN2CCOCC2)c1=O	.	-2%	.	19
CCc1c(C)sc(NC(=O)Cn2nc(C(F)(F)F)c3c2CCCC3)c1C#N	1%	-7%	0.6%	-1
CC1CCCCC1NC(=O)COc1ccc(C#N)cc1 (stereo not given)	5%	.	3.3%	.
